# NPYLR7 agonist: mosquito NPYLR7 agonism. HEK293T NPYLR7/Galpha15, GCaMP6s calcium fluorescence. activation, % at 10 µM. 270,000 tested, 0.15% active; in the data active = activation above about 40%;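 also: 0% = vehicle and 100% = reference agonist at the receptor; some compounds past the cut are filed as inactive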
# NPYLR7 agonist max-min: recorded beside NPYLR7 agonist, whose call it bears; activation, %; measured here: Max-Min RFU normalised activation; some inactives read as strong as hits;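 span of the calcium signal over five minutes; 0% = vehicle and 100% = native peptide agonist; compound fluorescence can raise it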
# Active calls of the source: *; & = joins results of further samples. Some of the compounds tested, so the mix of outcomes need not match the whole.
Compound | NPYLR7 agonist | NPYLR7 agonist max-min
CC(NC(=O)CCSCc1ccccc1Br)c1ccccc1 (configuration not stated) | -3 | -3
Cc1ccc2oc(-c3ccc(C)c(NC(=O)c4ccccc4)c3)nc2c1 | 1 | -3
COc1ccc(-c2ccc(OCCNC(=O)C3CCCCC3)nn2)cc1 | -6 | -6
COc1ccc(CN2CCC2(C)C(=O)NC2CCN(Cc3ccccc3)CC2)cc1 (configuration not stated) | 4 | -1
COc1cccc(OC)c1C(=O)NC1CCN(c2ccccc2C(=O)N(C)Cc2ccco2)CC1 | 1 | 12
CC(C)Cc1cc(C(=O)N(CC#Cc2ccccc2)C2CC2)n(C)n1 | -9 | -13
CCN(CC)C(=O)Oc1ccc2c(ccn2Cc2ccc(/C=C/c3ccccc3)cc2)c1-c1ccc(OC)c(OC)c1 | 11 | 5
Cc1nc(C(=O)N[C@@H](C)C(O)(c2ccccc2)c2ccccc2)cs1 | -7 | -11
COc1cc(C=C2N=C(c3ccccc3Cl)OC2=O)cc(OC)c1OC | -1 | 0
CC1(Cc2ccc(OC(F)(F)F)cc2)C(=O)Nc2cc(C(F)(F)F)ccc21 (configuration not stated) | 2 | 6
O=C(O)C1(CC2CCCCO2)CCN(c2ncnc3ccsc23)CC1 (configuration not stated) | 21 | 10
Oc1c(I)cc2oc3c(c2c1C=NCc1ccncc1)CCCC3 | 11 | 9
CCOC(=O)[C@@H]1CN2CCN(Cc3ccccc3)C[C@@H]2[C@H]1c1ccccc1 | 26 | 35
Fc1ccc(OCCSc2nnc3c(Cl)cc(Cl)cn23)cc1 | 13 | 20
CC(C)(C)OC(=O)N1CCC(NCc2ccccc2-c2ccccc2)C1 (configuration not stated) | 4 | 4
OC(COCc1ccco1)CN(CCc1nc(-c2cccc(C(F)(F)F)c2)no1)Cc1ccco1 (configuration not stated) | 2 | 3
CC(C)c1nc(CNc2cccc(OCc3cccc(C#N)c3)c2)no1 | -9 | -10
CC(C)NCC(O)c1ccc(O)c(O)c1 (configuration not stated) | 15&30&41 | 11&23&13
CCCCN(C)c1c(C)nc2ccc(C(=O)NCc3ccc(OC)cc3)cn12 | -7 | -12
Cc1ccc(CC(=O)Nc2cc(F)c(S(C)(=O)=O)c(F)c2)cc1 | 10 | 6
Cn1cnnc1CC1CCN(C(=O)c2cccc(Cn3cccn3)c2)CC1 | 1 | -1
CC(=O)N1CCc2cc(NC(=O)C3(C)CCN3Cc3ccccc3Cl)ccc21 (configuration not stated) | -4 | -6
Cc1nn(CC(=O)Nc2ccc(Cl)cc2Cl)c(C)c1[N+](=O)[O-] | 0 | 2
O=C(CC1CCCC(CC(=O)c2ccccc2)N1)c1ccccc1 (configuration not stated) | -7 | -9
CN1CCOC(CCNC(=O)c2cccc3cnccc23)C1 (configuration not stated) | -7 | -7
CC(C)(C)c1ccc(-c2nnc(SCC(=O)NCC(C)(C)N3CCOCC3)n2C2CCCC2)cc1 | 4 | 4
Cc1c(Cl)c([N+](=O)[O-])nn1CC(=O)Nc1sc2c(c1C#N)CCCCC2 | -2 | -6
COc1ccccc1NC(=O)CC1CSc2nc3c(cnn3-c3ccccc3)c(=O)n21 (configuration not stated) | 1 | -1
CCc1ccccc1NC(=O)NCCNc1cc(N(C)C)nc(C)n1 | 1 | -3
Cc1c(Cl)c(CN(C)Cc2cn[nH]c2)nc2ccccc12 | -1 | -1
O=C(NCC(O)c1ccccc1)c1ccc(NC(=O)C2CCC2)cc1 (configuration not stated) | 23 | 14
CNC(=O)CN(Cc1cccs1)[C@@H]1C[C@@H]2CO[C@H](C(C)C)C[C@@H]2C1 | 0 | 10
CCn1c(NC(=O)CCc2ccc3c(c2)OCCO3)nc2ccccc21 | 1 | 0
Cn1cc(CN2C[C@H](O)C[C@H]2c2nc(C3CC3)no2)c2ccccc21 | -8 | -11
CCN(CC)C(=O)c1csc(COc2ccc(Cl)cc2)n1 | -1 | -7
COc1cccc(CNC(=O)c2ccc(-c3cc(-c4ccc(Cl)cc4)[nH]n3)cc2)c1 | 25 | 16
NC1CCN(c2ccccc2C(=O)N2CCN(CC(=O)N3CCCC3)CC2)CC1 | 2 | 16
COc1ccc(N2CCN(C(=O)C3CC=CCC3C(=O)N3CCCCC3)CC2)cc1 (configuration not stated) | -7 | -12
Cc1cc(CC(=O)N2CCC3(CC2)N=CC2(CCCCC2)S3)on1 | 23 | 13
Cc1nn(-c2ccccc2)c(Oc2cccc(F)c2)c1CN(CC(O)CN1CCOCC1)CC1CC1 (configuration not stated) | -3 | 2
CCn1c(SCC(=O)N2CCN(c3ccccc3)CC2)nnc1-c1c(C)nc2sccn12 | 1 | 2
O=C(Cc1c[nH]c2ccccc12)N1CCN(c2cc(-n3ccnc3)ncn2)CC1 | -14 | -20
Cc1cc(SCC(=O)NC23CC4CC(CC(C4)C2)C3)nc2ccccc12 | 1 | -4
CCOC(=O)CNC(=O)CSc1nc2c(c(=O)n1-c1cccc(C(F)(F)F)c1)SCC2 | -6 | -12
O=C(NCCCN1CCCC1=O)c1cc2n(n1)CCN(Cc1cccc(F)c1)C2=O | 21 | 11
Cc1ccc(N2C(=O)CSC2c2cccc(NC(=O)c3ccccc3C)c2)cc1F (configuration not stated) | -18 | -10
COc1cccc(CSc2nnc(C(C)NC(=O)c3ccc(Cl)cc3Cl)n2-c2cc(Cl)ccc2Cl)c1 (configuration not stated) | -1 | 12
O=C1OCC(c2ccc3c(c2)OCCCO3)=C1c1ccc(Cl)c(Cl)c1 | 1 | 0

# Overlap with the part before: 7 entries; new compounds follow.
Compound | NPYLR7 agonist | NPYLR7 agonist max-min
O=C(Cc1c[nH]c2ccccc12)N1CCN(c2cc(-n3ccnc3)ncn2)CC1 | -14 | -20
Cc1cc(SCC(=O)NC23CC4CC(CC(C4)C2)C3)nc2ccccc12 | 1 | -4
CCOC(=O)CNC(=O)CSc1nc2c(c(=O)n1-c1cccc(C(F)(F)F)c1)SCC2 | -6 | -12
O=C(NCCCN1CCCC1=O)c1cc2n(n1)CCN(Cc1cccc(F)c1)C2=O | 21 | 11
Cc1ccc(N2C(=O)CSC2c2cccc(NC(=O)c3ccccc3C)c2)cc1F (configuration not stated) | -18 | -10
COc1cccc(CSc2nnc(C(C)NC(=O)c3ccc(Cl)cc3Cl)n2-c2cc(Cl)ccc2Cl)c1 (configuration not stated) | -1 | 12
O=C1OCC(c2ccc3c(c2)OCCCO3)=C1c1ccc(Cl)c(Cl)c1 | 1 | 0
CSCCC(C(=O)O)N1C(=O)/C(=C/c2ccc(O)cc2)SC1=S (configuration not stated) | 74* | 72*
c1ccc2c(CN3CCN(C4CC5CCC4C5)CC3)cccc2c1 (configuration not stated) | -2 | -8
COc1ccccc1-c1cccc2c1COCC(=O)N2Cc1ccccc1 | 3 | 3
CC(C)C(NC(=O)c1ccc(S(=O)(=O)C(F)F)cc1)C(=O)N(C)C (configuration not stated) | 4 | 4
Cc1ccc(-c2nc(-c3ccc(NC(=O)c4cccc(Cl)c4)cc3)no2)cc1[N+](=O)[O-] | -3 | -9
CC(C)NC(=O)c1cc2c(=O)n3ccccc3nc2n1C | 2 | -1
COc1ccc(NC(=O)c2cc(C)on2)c(OC)c1 | 5 | 6
COc1ccc(C(=O)Nc2cccc(-n3nc(OC)nc3-c3ccc(C(F)(F)F)cc3)c2)cc1 | -1 | 6
CCCCN(CC(=O)N(CCc1ccc(OC)c(OC)c1)Cc1cccs1)C(=O)c1ccc([N+](=O)[O-])cc1 | 9 | 14
Cn1c(S(=O)(=O)Cc2ccc(Br)cc2)nc2ccccc21 | -3 | 2
COCCCN(Cc1c(C)nn(-c2cccc(F)c2)c1N1CCN(C)CC1)S(=O)(=O)Cc1ccccc1 | 1 | 9
O=C(CCC1CCN(Cc2ccccc2C(F)(F)F)CC1)NCc1ccc(F)cc1 | -2 | -3
C=CCOCC(O)CN(Cc1ccco1)Cc1c(-c2ccccc2)nn(C)c1Oc1cccc(OC)c1 (configuration not stated) | -1 | 0
Fc1ccc(Oc2ncnc3sccc23)cc1Cl | 1 | -3
OCCNc1nccnc1-c1ccccc1 | -3 | -6
COc1ccc(CCNc2ccc3nnc(CCNC(=O)c4ccccc4)n3n2)cc1OC | 5 | -7
COc1ccc(-c2nc3ccc(C)cn3c2NC(=O)C(C)Cl)cc1 (configuration not stated) | -5 | -4
CCCCc1ccc(S(=O)(=O)c2cnc(SCC(=O)Nc3ccc(Cl)cc3)[nH]c2=O)cc1 | -1 | -7
Cc1c(C(C)NC(=O)Nc2ccc(Cl)c(Cl)c2)cnn1C (configuration not stated) | 11 | 8
CCc1cc(C(=O)N2CCc3c(cc(-c4ccccc4Cl)c(=O)n3Cc3ccncc3)C2)no1 | 18 | 9
CCC(C)NC(=O)CSc1nc(C)nc2sc3c(c12)CCC3 (configuration not stated) | -4 | -6
COCCNc1cc(-c2nccc3occc23)c2cc[nH]c2n1 | 2 | -2
CC(=O)Nc1ccc(CN(Cc2ccco2)C(C)C(C)C)cc1 (configuration not stated) | 15 | 1
COc1cccc(Nc2nc(C(N)Cc3ccc(C(F)(F)F)cc3)cs2)n1 (configuration not stated) | -5 | -8
O=C(c1ccccc1C(=O)N1CCC2(CC1)C(=O)NCN2c1ccccc1)N1CCC2(CC1)C(=O)NCN2c1ccccc1 | -5 | -11
Cc1nn(C)c(C)c1CN(CCO)C(=O)CC12CC3CC(CC(C3)C1)C2 | -4 | -6
CC12CCC(C(=O)N(NC(=O)c3ccco3)C1=O)C2(C)C (configuration not stated) | -3 | -6
CCC(CC)C(=O)N1CCN(c2nc(C)cc(Nc3ccc(C)cc3)n2)CC1 | 10 | 2
CCNC(=O)C1(C)CCN(Cc2cccc(C(F)(F)F)c2)C1 (configuration not stated) | 1 | 2
CCc1ccc(NC(=O)c2nnn(CC(=O)Nc3cccc(C)c3)c2N)cc1 | -8 | -13
CCN(CC1CCCO1)C(=O)Nc1cccc(-n2cccn2)c1 (configuration not stated) | 4 | 3
O=C(CN1CN(c2ccccc2)C2(CCN(C(=O)NC3CCCCC3)CC2)C1=O)NCCc1ccccc1 | 22 | 27
COc1cccc(F)c1-c1cc(NC(C)C)ncn1 | 18 | 5
CN(Cc1ccccc1)C1CCCN(C2CCSCC2)C1 (configuration not stated) | 0 | -2
O=C(NCc1ccc(=O)[nH]c1)C1CC12CCCc1ccccc12 (configuration not stated) | 9 | 8
COc1ccc(S(=O)(=O)NCCn2ncccc2=O)cc1OC | 1 | 2

# Three records drawn at random from those above, as already listed:
Compound | NPYLR7 agonist | NPYLR7 agonist max-min
CC12CCC(C(=O)N(NC(=O)c3ccco3)C1=O)C2(C)C (configuration not stated) | -3 | -6
CCNC(=O)C1(C)CCN(Cc2cccc(C(F)(F)F)c2)C1 (configuration not stated) | 1 | 2
CCC(CC)C(=O)N1CCN(c2nc(C)cc(Nc3ccc(C)cc3)n2)CC1 | 10 | 2

# Continuation.
Compound | NPYLR7 agonist | NPYLR7 agonist max-min
COC(=O)c1ccc(NC(=O)Cn2cc(OC)c(=O)cc2CSc2ncccn2)cc1 | -3 | -9
Cc1cc(C)n(CC(=O)Nc2c(C)cccc2C)n1 | 11 | 8
CCc1ccc2oc(=O)cc(-c3oc4ccccc4c3NC(=O)C3CC3)c2c1 | -7 | -11
COc1ccccc1NC(=O)N1CC(=O)Nc2cc(S(=O)(=O)N3CCCCC3)ccc21 | 0 | -9
COc1ccc(S(=O)(=O)N2CCC(Cc3ccccc3)CC2)cc1N1CCN(C(=O)c2ccno2)CC1 | -2 | 5
C=COCn1c2ccc(I)cc2c2cc(I)ccc21 | 0 | -7
CC(=O)NCCn1ncc2c(=O)n(Cc3ccccc3C)cnc21 | -4 | -12
COc1cc(OC)cc(N2CCN(C(C)=O)C(C)C2=O)c1 (configuration not stated) | 0 | 7
CC1Cc2cc(-c3cc(CC(=O)N4CCN(c5ccccc5F)CC4)no3)ccc2O1 (configuration not stated) | 5 | 7
CC1CCCN(S(=O)(=O)c2ccc(C(=O)NCc3ccco3)cc2)C1 (configuration not stated) | 9 | 3
N[C@H](C(=O)O)[C@@H]1CC(Cl)=NO1 | -5 | -9
COc1ccccc1N1CCN(c2ccc(NC(=O)c3cc(Cl)cc(Cl)c3)cc2C(=O)NC2CC2)CC1 | 0 | 7
COc1nc2cn(C3CCCC3)c(O)c2cc1CNC(=O)CCc1cccnc1 | 3 | -2
Cc1ccc(C)c(OCC(=O)ON=C(N)c2cccnc2)c1 | 12 | 8
O=C1CC(Nc2cnc3ccccc3n2)CN1CC1CCCCC1 (configuration not stated) | 26 | 9
CCCCN(C(C)=O)c1c(CC)nc2ccc(C(=O)N(CC)CCN(C)C)cn12 | -4 | -6
COc1c(F)ccc(C(=O)N2CCCC3(CC2)CN(C)C(=O)O3)c1F (configuration not stated) | 5 | 0
CN1CC2(CCN(C(=O)NCc3ccccc3F)CC2)CC1C(=O)O (configuration not stated) | 7 | -3
CC1(C(=O)O)CCN1C(=O)c1cccc(C(F)(F)F)c1 (configuration not stated) | 4 | 2
CCOc1ncccc1C(=O)Nc1cc(F)c(N(C)C)c(F)c1 | 3 | 0
Cc1nc(N2CCCCC2)c2c3c(sc2n1)CC(C)CC3 (configuration not stated) | 5 | 4
O=C1CC(c2ccccc2)Oc2ccccc21 (configuration not stated) | -8 | -14
CC1=C(C(=O)N2CCC(Oc3cccc(C(=O)NCc4ccccn4)c3)CC2)OCCO1 | -1 | -3
CCN1C(=O)NC(c2ccccc2Cl)C(C(=O)OCCOC)=C1C (configuration not stated) | -6 | -1
Cc1[nH]n(-c2ccccc2)c(=O)c1/C=N\NCc1ccccc1 | 1 | 0
Nc1nc(SCc2ccc([N+](=O)[O-])cc2)c2ncn([C@@H]3O[C@H](CO)[C@H](O)C3O)c2n1 (some centres not stated) | 4 | -4
Cc1noc(C(C)NC(=O)Cc2ccccc2Br)n1 (configuration not stated) | 8 | 1
C#CCSc1nnc(-c2cc(OC)cc(OC)c2)n1-c1ccc(C)cc1 | 20 | 25
CCN(CC(=O)Nc1cc(-c2ccccc2)nn1-c1ccc(Cl)cc1)C(=O)Nc1ccccc1C(F)(F)F | 17 | 20
CCCc1nc(N2CCCN(C(=O)COCc3ccccc3)CC2)c2c(C)nn(-c3ccccc3)c2n1 | 9 | 13

# High-throughput results deposited in PubChem BioAssay by Fisher Drug Discovery Resource Center.
